Compound activity as filed in PubChem BioAssay.
AID504770 – growth inhibitors of E. coli YBA685 in a screen for V. cholerae RctB (chromosome II replication) inhibitors; E. coli YBA685 rctB-dependent plasmid, OD600 growth, 3 h; active compounds read low; z-score (no concentration beside the values); 130,000 tested, 0.27% active; AID 504770;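 active means z-score under -2 on both plates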;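 further: wells of about 30 µL received 100 nL stock; score is relative to mean and SD of the test wells; the first replicate is given; strong numbers were not always called active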
Ba CapD inh – CapD enzyme inhibition; purified CapD enzyme, fluorescence intensity read-out; active compounds read low; some hits fall short of the stated cut; z-score (no concentration beside the values); 140,000 tested, 0.23% active; AID 492967;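 active means z-score under -4 in either of two replicates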;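 further: stock transfer was 100 nL into about 40 µL; score is relative to mean and spread of the plate; one replicate is shown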
Starred values were filed as active, the others as inactive; . = no result given; & = joins results of further samples.

Results follow in this order: AID504770	Ba CapD inh
(1) COc1cccc(C2C(C#N)=C(N)Oc3n[nH]c(C(C)(C)C)c32)c1 (stereo not given)
    -0.6	0.21
(2) Cc1ccc2c(c1)N(C(=O)Nc1ccccc1C)CC(C)O2 (stereo not given)
    -0.7	-1.5
(3) O=C(NCc1cccnc1)c1c(O)c2cccc3c2n(c1=O)CC3
    -0.65	.
(4) O=C(CSc1nnc(Cc2ccccc2)o1)NC1CCCCC1
    -0.3	-0.08
(5) CN(C)S(=O)(=O)c1cccc(-c2nnc3n2N=C(c2cccs2)CS3)c1
    0.05	.
(6) COC(=O)c1cnn2c3c(c(C)nc12)CCCC3
    2.3	-0.34
(7) CC(C)CCNC(=O)C12CC3CC(CC(O)(C3)C1)C2
    1.4	.
(8) CCc1nc(SCC(=O)C(C)(C)C)c(C#N)cc1C
    -0.05	0.45
(9) CCOCN(C(=O)Cn1cnc2ccccc21)c1c(C)cccc1CC
    -1.1	-0.1
(10) COc1ccccc1/C=C/C(=O)Nc1sc2c(c1C(N)=O)CCC2
    0.9	-0.21
(11) COC(OC)c1cc(=O)[nH]c(SC)n1
    -0.2	-0.09
(12) COc1cc(OC)c(OC)cc1CN1CCC(N2CCN(c3ccccc3OC)CC2)CC1
    -0.8	-0.23
(13) CC1CN(Cc2c(O)ccc3c(=O)c(Oc4ccccc4Br)c(C(F)(F)F)oc23)CC(C)O1 (stereo not given)
    .	0.06
(14) Cc1cc2nnc(SCC(=O)c3cc(C)n(Cc4ccccc4)c3C)n2c2ccccc12
    0.2	38
(15) O=S(=O)(O/N=C1/CCCc2occc21)c1ccc(Br)cc1
    .	-0.04
(16) CC1=CC(C)C(C[N+]2(C)CCCCC2)C(C)C1 (stereo not given)
    1.5	0.005
(17) CCSc1ncc(Cl)c(C(=O)Nc2ccc(S(=O)(=O)N3CC(C)OC(C)C3)cc2)n1 (stereo not given)
    -0.2	-0.05
(18) COc1ccc(S(=O)(=O)Nc2cccnc2)c2ccccc12
    0.25	0.47
(19) CCOC(=O)C1=C(C)NC2=C(C(=O)CC(c3ccc(OC)c(OC)c3)C2)C1c1cccc(OC)c1OC (stereo not given)
    .	4.5
(20) Cc1cc2c(cc1C)CSC(C)(c1ccc(F)cc1)SC2
    .	-0.17
(21) Clc1ccc(/C=C2\CCCC3=C2Nc2ncnn2C3c2ccc(Cl)cc2)cc1 (stereo not given)
    .	2.6
(22) CC(NC(=O)c1cccc(F)c1)C(c1cccs1)N1CCN(C)CC1 (stereo not given)
    -0.95	-0.3
(23) O=S(=O)(c1ccc(Cl)c(Cl)c1)c1snnc1-c1ccccc1
    .	-0.99
(24) O=C(COc1ccc(-c2nccc(-c3cccs3)n2)cc1)NC1CCCC1
    .	0.42
(25) N#Cc1ccccc1OCc1nc2ccccc2o1
    0.15	.
(26) O=C(O)CCCC(=O)N1CCCN(c2ccc(C(F)(F)F)cn2)CC1
    -1.1	4.5
(27) Cc1csc2ncnc(Sc3ccccc3NS(=O)(=O)c3ccc(F)cc3)c12
    -0.8	0.34
(28) CSc1ccc(N(C(C)=O)c2nc(C)cc(C)n2)cc1
    .	-0.14
(29) CCC(CO)Nc1nc(C)nc2sc3c(c12)CCC3 (stereo not given)
    -0.8&-0.6	-0.83&0.58
(30) O=C1CC(Sc2cccs2)C(=O)N1c1ccccc1 (stereo not given)
    -1.2	-0.075
(31) NC(=O)C1CCN(C(=O)c2ccc3c(=O)n(Cc4ccco4)c(SCC(=O)Nc4nccs4)nc3c2)CC1
    .	0.08
(32) CCN=C1SC(CC(=O)Nc2ccccc2Cl)C(=O)N1CC (stereo not given)
    .	0.4
(33) COc1ccc(-n2nc(C)cc2Nc2ccccc2C(=O)O)cc1
    2.1	0.32
(34) O=C(c1cnn2c(C(F)(F)F)cc(-c3ccccc3)nc12)N1CCCC1
    -0.05	0.77
(35) Cc1cc(=O)[nH]c(SCC(=O)Nc2ccccc2C)n1
    -1.2	-0.72
(36) Cc1nn(-c2c(Cl)cc(C(F)(F)F)cc2Cl)c(C)c1C(N)=O
    -0.65	0.05
(37) CCc1ccc(CNC(=O)CN2C(=O)CSc3ncccc32)cc1
    0	0.35
(38) O=c1[nH]c2ccccc2cc1CNc1ccccc1
    -0.15	.
(39) CCOC(=O)/C(C#N)=C/c1ccc(N2CCCCC2)o1
    0.6	.
(40) COCCOC(=O)C1=C(C)NC(C)=C(C(=O)OCCOC)C1c1ccc(-c2cccc(Cl)c2Cl)o1
    .	2.9
(41) CCOC(=O)C1=C(c2ccccc2)N=c2s/c(=C\c3ccco3)c(=O)n2C1c1ccc(OCC)cc1 (stereo not given)
    .	0.42
(42) CCCc1oc2ccc(NS(=O)(=O)c3ccc4c5c(cccc35)C(=O)N4)cc2c1C(=O)OCC
    .	0.055
(43) CCCNc1ncnc2nc[nH]c12
    2.3	-0.34
(44) Cc1cc(C(=O)C(C)OC(=O)c2cccc(-n3cnnn3)c2)c(C)n1-c1ccccc1 (stereo not given)
    0.15	.
(45) Cn1nc(OCC(=O)N2CCOCC2)cc1C(F)(F)F
    0.05	0.86
(46) CN1OC2C(=O)N(c3ccccc3)C(=O)C2C1c1ccc(F)cc1 (stereo not given)
    0.7	-0.065
(47) Cc1cc(C)n2nc(SCC(=O)N(C)c3c(N)n(Cc4ccccc4)c(=O)[nH]c3=O)nc2n1
    2.1	.
(48) CCOC(=O)c1ccc(C(=O)OCC)nc1
    -0.15	.
(49) Cc1ccc(N2CC(C(=O)O)CC2=O)cc1 (stereo not given)
    -0.4	0.38
(50) CN(C)/N=C/C=C1\CCC/C(=C\C=N\N(C)C)C1=O
    -0.3	.
(51) S=C1NCN(Cc2ccc3c(c2)OCO3)CN1
    0.3	0.18
(52) OCCN1C[C@@H](O)[C@@H](O)C(O)C1CO (stereo not given in full)
    -0.4	.
(53) CC(C)(C)n1ncc2c(=O)n(Cc3cccc(C(F)(F)F)c3)cnc21
    0.15	0.53
(54) CNC(=S)Nc1ccc(OC)cc1C
    1	0.54
(55) c1nc2nnnn2c2c1CCCC2
    -0.5	.
(56) CN1CCSc2ccc(C(=O)NCCCN3CCCC3)cc21
    0.2	52
(57) Cc1cc(C)nc(NS(=O)(=O)c2ccc(NC(=O)c3ccc(Br)cc3)cc2)n1
    .	0.51
(58) Cc1cccc(C(=O)NCc2n[nH]c(=S)n2-c2ccccc2)c1
    1.6	-0.42
(59) O=C(NCc1ccccn1)c1ccc(N2CCCC2=O)cc1
    -0.25	24
(60) O=C(CSC1CCCCC1)Nc1cccnc1Cl
    -0.8	.

One compound at a time (already shown). Values in the order: AID504770	Ba CapD inh
Profile of COC(OC)c1cc(=O)[nH]c(SC)n1 = -0.2	-0.09
Profile of CC1CN(Cc2c(O)ccc3c(=O)c(Oc4ccccc4Br)c(C(F)(F)F)oc23)CC(C)O1 (stereo not given) = .	0.06
Profile of CN1CCSc2ccc(C(=O)NCCCN3CCCC3)cc21 = 0.2	52
Profile of O=C(c1cnn2c(C(F)(F)F)cc(-c3ccccc3)nc12)N1CCCC1 = -0.05	0.77
Profile of CN(C)/N=C/C=C1\CCC/C(=C\C=N\N(C)C)C1=O = -0.3	.

Next records.
cpd | SMILES | AID504770 | Ba CapD inh
61 | O=C(O)COCC(=O)Nc1cc(Cl)cc(Cl)c1 | -0.25 | 0.26
62 | O=C(CN1C(=O)CCSc2ccccc21)NCCCN1CCN(C2CCCCC2)CC1 | -0.7 | -0.05
63 | CSC1=C(C#N)C(=O)NC(C)(C)S1 | . | -3.3
64 | O=c1[nH]cc(-c2nc3ccccc3s2)c(=O)[nH]1 | -0.3 | .
65 | O=c1c2c3c(sc2ncn1Cc1nn[nH]n1)CCCC3 | -0.6 | .
66 | CCOc1[nH]n(-c2ccc(Cl)cc2)c(=O)c1C=NCc1ccc(Cl)cc1 | . | -0.32
67 | Cc1ccccc1OC(=O)Cn1c(C(F)(F)F)nc2ccccc21 | 0.3 | -0.24
68 | Cc1ccc(CO/N=C/c2cccs2)cc1 | 1.6 | .
69 | CCOc1ccc(C2CNC(=O)C2C(=O)OC)cc1OCC (stereo not given) | -0.7 | -0.78
70 | CC1CCCCN1C(=O)CSc1nc2ccccc2n1-c1ccccc1 (stereo not given) | -0.85 | -0.16
71 | COc1ccccc1Cn1nccc1N | 0 | .
72 | CS(=O)(=O)c1nc(-c2ccc(Cl)cc2)n[nH]1 | -0.55 | 0.44
73 | O=C1OC(Nc2ccc(C(F)(F)F)cc2Cl)c2ccccc21 (stereo not given) | . | -0.05
74 | O=S(=O)(c1ccccc1)N1CCN(c2nc3ccccc3s2)CC1 | . | -0.03
75 | Cc1ccc(NC(=O)/C(C#N)=C\c2ccc(Sc3nc4ccccc4[nH]3)o2)cc1C | -0.45 | -0.72
76 | O=C(CSc1ccccc1Cl)c1cc2ccccc2o1 | 1.8 | -0.48
77 | CCN(c1ccc(F)cc1)S(=O)(=O)c1ccc2[nH]cc(C(=O)N3CCN(c4ccccc4)CC3)c(=O)c2c1 | . | 0.55
78 | CC1Sc2sc(=S)sc2SC(C)(C)C1=O (stereo not given) | . | -0.65
79 | CC(C)CNC(=O)C1CCN(S(=O)(=O)c2ccc(-n3cnnn3)cc2)CC1 | -0.15 | .
80 | CC1=CC(=O)NP(=O)(Oc2ccccc2)N1 (stereo not given) | 1.7 | .
81 | O=C(Oc1c(-c2ccccc2)oc2ccccc2c1=O)c1cccnc1 | 0.15 | -0.25
82 | Cc1c2c(nc3c(C(=O)NCc4ccc(F)cc4)cnn13)CCCC2 | -0.5 | 8.8
83 | O=C(NCCc1ccccc1)c1ccc2c(c1)N(Cc1ccc(F)cc1)C(=O)c1ccccc1S2=O (stereo not given) | 0.5 | 69
84 | O=C(CSc1nnc2n1CCCN2)c1cccs1 | -0.55 | -0.1
85 | CC(=O)OCC1OC(Oc2ccccc2)C(OC(C)=O)C(OC(C)=O)C1OC(C)=O (stereo not given) | -0.4 | .
86 | Fc1cccc(CSC2=NCN(C3CC3)CN2)c1 | -0.7 | 1.4
87 | Cc1ccc(N2C(=O)c3ccccc3NC2c2ccc(Br)cc2)cc1Cl (stereo not given) | . | 52
88 | NS(=O)(=O)c1ccc(CNC(=O)C2CCCCC2)cc1 | -0.5 | 0.23
89 | Cc1ccc2cc(C)c(NCc3cccnc3)nc2c1 | 2.2 | 53
90 | Cc1cc(C(=O)COc2ccccc2Cl)c(C)n1Cc1cccs1 | -0.2 | .
91 | CCOC(=O)C1=C(O)/C(=C/c2ccccc2)SC1=Nc1ccccc1 | . | -0.14
92 | O=C(Cn1ncc2c([nH]c3ccccc32)c1=O)N1CCCCC1 | 1.2 | 12
93 | O=C(c1noc2c1COc1ccccc1-2)N1CCC2(CC1)OCCO2 | 0 | -0.045
94 | COC(=O)c1ccc(CSc2nncn2C)cc1 | -1.1 | .
95 | CCOC(=O)c1sc(-n2ncc3c(=O)[nH]cnc32)nc1C | -0.1 | .
96 | CN(C)Cc1ccc(CSCCNC(=O)Nc2ccc(Cl)cc2)o1 | . | -0.37
97 | NC(=O)C1CN(C(=O)Cc2ccc3c(c2)CCC3)c2ccccc2O1 (stereo not given) | 0.35 | .
98 | CS(=O)(=N/C=C(\C#N)S(=O)(=O)c1ccc(C(F)(F)F)cn1)c1ccsc1 (stereo not given) | -0.05 | -0.2
99 | CC(C)(C)N=Cc1cc(-c2ccccc2)sc1S | -0.75 | -0.36
100 | CCOc1cc2c(cc1OCC)C1C(C(=O)Nc3ccc4c(c3)OCO4)c3ccccc3C(=O)N1CC2 (stereo not given) | -0.4 | 0.42
101 | Cc1c(Br)c([N+](=O)[O-])nn1CC(=O)Nc1cc(Oc2cccnc2)cc([N+](=O)[O-])c1 | . | -0.61
102 | C=CCSc1nnc(NC(=O)CSc2nc(CCC)cc(=O)[nH]2)s1 | 1.4 | -0.68
103 | COc1cc(Cc2cnc(N)nc2N)cc(OC)c1OC | -3.1* | -0.015&65
104 | O=C(Nc1ccccc1)c1ccc(Br)s1 | -1.4 | 0.54
105 | Nc1c(C(=O)Nc2cccc(C(F)(F)F)c2)sc2nc(-c3cccs3)ccc12 | . | 7.6

Continued; the last 4 above are carried over.
cpd | SMILES | AID504770 | Ba CapD inh
102 | C=CCSc1nnc(NC(=O)CSc2nc(CCC)cc(=O)[nH]2)s1 | 1.4 | -0.68
103 | COc1cc(Cc2cnc(N)nc2N)cc(OC)c1OC | -3.1* | -0.015&65
104 | O=C(Nc1ccccc1)c1ccc(Br)s1 | -1.4 | 0.54
105 | Nc1c(C(=O)Nc2cccc(C(F)(F)F)c2)sc2nc(-c3cccs3)ccc12 | . | 7.6
106 | O=S(=O)(NCc1ccccn1)c1ccccc1 | -0.55 | 0.11
107 | O=C(Nc1ccc(Oc2ccc3ccccc3c2Cl)c(Cl)c1)c1cc(Cl)cc(I)c1O | . | 1.1
108 | CCOc1ccc(C(=O)Nc2ccc(-c3nc4cc(C)cc(C)c4o3)cc2)cc1[N+](=O)[O-] | . | -0.01
109 | O=C1OCCC1Sc1nnc(-c2ccc(Cl)cc2)o1 (stereo not given) | 0.5 | -0.55
110 | CCOC(=O)C1CCN(c2nc3ccc(Cl)cc3s2)CC1 | . | -0.045
111 | CCOC(=O)c1c(NC(=O)C23CC4CC(CC(C4)C2)C3)sc(C(=O)Nc2cc(C(F)(F)F)ccc2Cl)c1C | . | 0.35
112 | c1ccn2c(SCc3nnc(-c4cc5c(s4)CCCC5)o3)nnc2c1 | -1.2 | .
113 | COc1cccc(-c2nnc(NC(=O)c3ccc(S(=O)(=O)N(C)C)cc3)o2)c1 | . | 0.78
114 | CCOc1ccc(NC(=O)CN2C(=O)/C(=C3\SC(=S)N(C4CCS(=O)(=O)C4)C3=O)c3ccccc32)cc1 (stereo not given) | . | -0.34
115 | Cc1nc2sccn2c1-c1csc(NCc2ccco2)n1 | 2 | -0.38
116 | CCN(Cc1ccncc1)C(=S)NCc1ccccc1 | 1.1 | .
117 | CCSc1ccc(C(=O)Nc2ccc(Sc3nc(C)cc(C)n3)cc2)cc1 | . | -0.61
118 | CCOC(=O)Nc1ccc(C(=O)OC)cc1 | 0.2 | .

This is a random part of the collection. About 0.41% of those tested had a hit in this group.
